# CDC25B CDK2 inh – human CDC25B-CDK2/CyclinA binding inhibition | P30305+P24941 | HTRF CDC25B-CDK2/CyclinA binding, anti-His/anti-Flag; stronger effect = higher value | z-score (concentration not given with the values) | hit rate 0.72% among 94,000 | AID 1259370;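 further: score is relative to mean and SD of negative controls; strong numbers were not always called active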
# TAR Tat displ – HIV-1 TAR-Tat binding disruption. HIV-1 TAR RNA, Tat peptide displacement FRET; stronger effect = higher value. z-score (no concentration beside the values). hit rate 0.6% among 100,000;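 further: score is relative to mean and SD of negative controls; some compounds called inactive have numbers as strong as hits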
# Numbers without * were called inactive; nt = not tested or not shown.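 How the source made its calls: active means z-score from 3 up in half or more of its runs; inactive means the rest.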 Rows were taken by chance; any-hit rate near 0.89%.
# Below each compound – CDC25B CDK2 inh	TAR Tat displ
Cn1c(SCc2cc(=O)n3nc(C4CC4)sc3n2)nnc1-c1ccccc1
  nt	0.57
O=C(Nc1nnc2n1CCCS2)C1CCCCC1
  nt	1.7
Cc1ccc2nc(C(C)Oc3ccccc3)[nH]c2c1 (stereo not drawn)
  -1.8	0.22
COCCNc1nc(N)c([N+](=O)[O-])c(Nc2ccc(C)cc2)n1
  nt	1.4
CCOC(=O)c1csc(NC(=O)Nc2cc(F)ccc2F)n1
  0.99	1.9
O=C1c2ccccc2S(=O)(=O)N1C(=O)c1cccc2ccccc12
  -0.69	nt
COC(=O)c1ccc2c(=O)n3nc(NCc4ccco4)sc3nc2c1
  nt	1.4
O=C(CSc1nc(-c2ccco2)cc(C(F)(F)F)n1)Nc1ccccc1Br
  -0.8	-3.5
CC(C)(C)NC(=O)[C@H]1CC[C@H]2[C@@H]3CC[C@H]4NC(=O)C=C[C@]4(C)[C@H]3CC[C@]12C
  nt	1.8
CCOC(=O)c1cc(C)n(N(C)c2cc(C(F)(F)F)ccn2)c1C
  0.02	nt
O=C(c1cc2c(s1)-c1ccc(Cl)cc1S(=O)(=O)C2)N1CCCc2ccccc21
  -1.7	2.7
CSc1nsc(SC)c1C(=O)NC(=O)N1CCSCC1
  -1.8	nt
CC1(C)Cc2nc3oc4c(NCc5ccccc5)ncnc4c3cc2CO1
  nt	-0.36
Cn1nc(C(=O)NC2CCCC2)c2c1-c1ccccc1SC2
  -0.85	1.4
O=C(O)c1ccc(Nc2nc3ccccc3c3nncn23)cc1
  0.72	1.2
C#CCOc1ccc(C2CC(=O)Nc3c2cnn3-c2nc3ccccc3s2)cc1OCC (stereo not drawn)
  nt	2.1
CNCCCCc1cnc(C)c2[nH]c3ccccc3c12
  nt	5*
CCCC1CCC(c2ccc(C(=O)O)cc2)CC1 (stereo not drawn)
  -0.13	2.3
CN(C)c1ccc(CNS(=O)(=O)c2cn(C)cn2)cc1
  nt	2
Cn1c(=O)oc2cc(S(=O)(=O)NC(Cc3ccccc3)C(=O)N3CCc4ccccc43)ccc21 (stereo not drawn)
  -0.54	nt
O=C(NC1CCS(=O)(=O)C1)c1cc2ccccn2n1 (stereo not drawn)
  nt	-0.08
O=C1C2C3C=CC(C3)C2C(=O)N1CCC(=O)N1c2ccccc2Sc2ccccc21 (stereo not drawn)
  -0.86	nt
COc1ccc2c(c1OC)CN(C)CCc1cc3c(cc1C(=O)C2)OCO3
  -1.1	0.48
CCOC(=O)C(=O)CC(=O)c1ccc(CC)cc1
  0.74	-0.27
CCC1(C)Cc2c(sc3nc(SCCCC(=O)O)nc(N)c23)CO1 (stereo not drawn)
  -0.79	0.6
COc1ccc(C2CC(c3ccccc3Cl)Nc3nc(N)nn32)cc1OC (stereo not drawn)
  -1.6	0.59
OCc1nc(CO)n(Cc2ccccc2)n1
  -0.12	1.7
CCCCN(C)S(=O)(=O)c1csc(C(N)=O)c1
  nt	1.5
Cc1nnc2c(N3CCN(c4cccc(Cl)c4)CC3)nc3ccccc3n12
  -0.57	0.47
O=C(NCCCN1CCCC1=O)C1CCC(Cn2c(=S)[nH]c3ccccc3c2=O)CC1 (stereo not drawn)
  -0.55	nt
Cc1ccsc1CN1CCc2nc(N3CCN(c4ncccn4)CC3)ncc2C1
  nt	-0.34
O=C(Cn1cnc2nc3c(cc2c1=O)CCCC3)NCc1ccco1
  nt	0.2
N#C/C(=C\c1ccccc1Cl)S(=O)(=O)c1ccccn1
  -2.7	nt
CSC(=S)OC12CC3CC(CC(C)(C3)C1)C2
  0.69	nt
CC(=O)NC(=O)c1cnn(-c2ccccc2)c1N
  -1.2	nt
Cc1nnc2n1NC(c1ccc(F)cc1)C(C(=O)Nc1ccc(Br)cc1)S2 (stereo not drawn)
  -1.5	-0.81
Cc1ccc(N2C(=O)C3CCCN3C2=S)cc1 (stereo not drawn)
  -1.8	nt
Cc1ccc(C(CNC(=O)c2cc(=O)c3cc(Cl)ccc3o2)N2CCN(C)CC2)o1 (stereo not drawn)
  0.13	2.3
COc1ccc(S(=O)(=O)c2nnn(-c3ccc(Br)cc3)c2C)cc1
  0.59	0.27
Cc1nc2nc(CC(=O)O)[nH]n2c(=O)c1Br
  -0.52	2.8
CC1=CC(C)(C)N(C(=O)CN2C(=O)C3CCCCC3C2=O)c2cc(C)ccc21 (stereo not drawn)
  -1.1	-0.27
Cc1ccc(-c2n[nH]c(=O)c3c2CCCC3)cc1S(=O)(=O)N1CCCCC1C (stereo not drawn)
  -0.09	0.49
CCOC(=O)/C(C#N)=N/Nc1ccsc1C(=O)OC
  -1.6	nt
O=C(Cn1c(=O)n(Cc2ccco2)c(=O)c2sc3ccccc3c21)Nc1ccccc1Cl
  -2.2	2.7
Cn1c(=O)[nH]c(=O)c2c(C(=O)O)cc(=O)[nH]c21
  1.7	0.31
Cn1c(SCC(=O)O)nnc1-c1ccc2c(c1)OCO2
  0.74	0.68
CCOC(=O)CN1C(=O)CSc2ccc(S(=O)(=O)N3CCOCC3)cc21
  -1.6	nt
CCOC(=O)N1CCN(C(=O)C2CCC(=O)N2C(C)C)CC1 (stereo not drawn)
  nt	0.76
CN(c1ccccc1)S(=O)(=O)c1ccc(NC(=O)c2nc(S(C)(=O)=O)ncc2Cl)cc1
  -5.7	1.6
CCOC(=O)c1sc(C)c2c1NC(c1ccc(SC)cc1)NC2=O (stereo not drawn)
  -0.32	nt
CCC(C)NC(=O)C1CCCN(c2nnc(-n3cccc3)s2)C1 (stereo not drawn)
  -1.3	-0.95
Clc1cccc(N2CCN(c3cnc4ccccc4n3)CC2)c1
  nt	5.7
Cc1nnc2c3ccccc3nc(Nc3ccc4c(c3)OCO4)n12
  nt	-0.98
O=c1c(=S)[nH]ccn1-c1ccc(F)cc1
  -1.7	0.39
CCN(CC)c1nnc(-n2cccc2CNc2cc(OC)cc(OC)c2)s1
  nt	0.71
O=C(CSc1ccc2nc(-c3ccccc3)cn2n1)NCC1CCCO1 (stereo not drawn)
  nt	1.5
Cc1ccc(/C(O)=C2\C(=O)C(=O)N(CCCC(=O)O)C2c2ccc(C)cc2)cc1 (stereo not drawn)
  -2	nt
OCCCCn1c(-c2ccccc2)cc2ccccc21
  -1.8	nt
COc1cccc(CN(CCS(=O)(=O)N2CCNCC2)S(=O)(=O)c2ccccc2)c1
  nt	2.3
CC1=C(c2ccc(C)cc2)S(=O)(=O)N=C1Nc1ccc(Cc2ccncc2)cc1
  -0.66	0.86

# Arranged by formula weight (lowest first): some entries from above.
# Below each compound – CDC25B CDK2 inh	TAR Tat displ
CCOC(=O)/C(C#N)=N/Nc1ccsc1C(=O)OC
  -1.6	nt
CCOC(=O)N1CCN(C(=O)C2CCC(=O)N2C(C)C)CC1 (stereo not drawn)
  nt	0.76
Cc1ccc(-c2n[nH]c(=O)c3c2CCCC3)cc1S(=O)(=O)N1CCCCC1C (stereo not drawn)
  -0.09	0.49
CC1=C(c2ccc(C)cc2)S(=O)(=O)N=C1Nc1ccc(Cc2ccncc2)cc1
  -0.66	0.86
Cc1ccsc1CN1CCc2nc(N3CCN(c4ncccn4)CC3)ncc2C1
  nt	-0.34
COc1cccc(CN(CCS(=O)(=O)N2CCNCC2)S(=O)(=O)c2ccccc2)c1
  nt	2.3
CN(c1ccccc1)S(=O)(=O)c1ccc(NC(=O)c2nc(S(C)(=O)=O)ncc2Cl)cc1
  -5.7	1.6

# The results go on.
# Below each compound – CDC25B CDK2 inh	TAR Tat displ
Cc1noc(C)c1CSc1nnc(C)c(=O)[nH]1
  -0.61	-0.88
Cc1noc2ncnc(NCc3cccc(Cl)c3)c12
  nt	0.41
O=C(Cn1cc(S(=O)(=O)N2CCCCC2)c(S(=O)(=O)N2CCCCC2)c1)N1CCCCC1
  nt	2.1
CCCCNC(=O)Cc1sc(C)nc1-c1cccs1
  -1.1	-1.7
CS(=O)(=O)N1CCc2cc3ccccc3nc21
  -1.7	0.02
CCOc1cc(/C=C2\Sc3ccccc3C2=O)ccc1OCc1ccc([N+](=O)[O-])cc1
  -2.6	nt
CCCn1c(N)nc2c1c(=O)n(C)c(=O)n2C
  -1.4	nt
CCCN(CCC)c1ncnc2c1sc1nc3c(cc12)COC(C)(C)C3
  0.82	nt
CCN(CC)S(=O)(=O)c1ccc2c(c1)nnn2C1CCN(C(=O)NCCC(C)C)CC1
  nt	0.96
c1nc(N2CCOCC2)nc2c1CNCC2
  -0.66	0.21
CS(=O)(=O)c1ncc(Cl)c(C(=O)N(Cc2ccccc2)C2CCS(=O)(=O)C2)n1 (stereo not drawn)
  -2.1	-0.48
COc1cc(/C=C2/SC(=S)N(CC(=O)O)C2=O)ccc1OCc1ccccc1F
  -1.6	nt
CN1CCN(CCCNC(=O)C2CCN(C(=O)c3cc4sccc4n3C)CC2)CC1
  -1.9	-0.8
CC(=O)N1N=C(c2c(-c3c(Cl)cccc3Cl)noc2C)OC1c1ccc([N+](=O)[O-])s1 (stereo not drawn)
  0.07	nt
COc1ccccc1N1CCN(C(=O)C2=CC(c3ccco3)=NS(=O)(=O)N2C)CC1
  -0.52	1.8
COC(=O)C1=C(C)Nc2nnnn2C1c1ccccc1Cl (stereo not drawn)
  -0.2	1.1
Cc1nn(-c2ccccc2)c2sc(C(=O)Oc3cccc4cccnc34)cc12
  -1.7	0.17
COC(=O)c1sccc1-c1ccc(CN2CCC(c3ccccc3OC)CC2)o1
  -1.4	nt
CN1CCN(c2nc(N(C)C)nc(N)c2[N+](=O)[O-])CC1
  nt	1.6
O=C(CSc1nc(-c2ccccc2F)nc2cc(=O)[nH]n12)Nc1ccc(F)cc1
  nt	3.9
CC(C)c1nn2c(=O)cc(COC(=O)c3cccs3)nc2s1
  nt	-0.11
O=C(CC1C(=O)N(c2ccccc2)C(=O)N1C1CCCCC1)Nc1ccccc1 (stereo not drawn)
  -0.43	nt
FC(F)(F)c1ccc(/C=N/N2CCOCC2)c(Cl)c1
  -1.9	nt
COc1ccc(C(=O)Cn2c3ccccc3n3ncnc23)cc1
  2.1	-2.5
O=C(NC(c1ccc(Cl)cc1)c1cccnc1)c1ccco1 (stereo not drawn)
  -1.6	0.62
COc1cccc(Oc2c(C(F)(F)F)oc3cc(O)ccc3c2=O)c1
  -1.1	-3.9
COc1ccc(Nc2nnc(C)c(=O)[nH]2)c(OC)c1
  -0.89	2.2
N#Cc1cc2c(nc1SCC(=O)N1CCOCC1)CCCCC2
  -1.7	0.78
Cc1ccc(NC(=O)N2CCn3cccc3C2C(C)C)cc1F (stereo not drawn)
  nt	0.05
CC(C)Cn1c(=O)c2ccccc2n2c(CCC(=O)NCCC3=CCCCC3)nnc12
  -1.9	0.5
COc1cc(OC)c(NS(=O)(=O)c2ccc3c(c2)NC(=O)CO3)cc1Cl
  nt	2.9
O=c1oc2c(o1)=C(c1ccccc1)S(=O)(=O)C=2c1ccccc1
  -3.9	nt
CCN(CC)c1ccc(NC(=O)c2cnn3c(C(F)F)cc(C)nc23)cc1
  -2.5	0.8
C=CCn1c(=S)sc2c(Sc3nnc(-c4ccncc4)n3C)ncnc21
  -1.7	nt
Cc1nc2c(c(C)c1CCC(=O)NCc1ccco1)c(=O)n(C)c(=O)n2C
  -1.1	2.6
Cc1nc(NC(=O)c2csnn2)sc1C(=O)OCC(C)C
  -0.59	0.08
COCCNc1ncnc2sc3c(c12)CCCC3
  1.1	-0.19
COc1ccc(NC(=O)CSc2nccn2-c2ccc(OC)cc2OC)c(OC)c1
  nt	1.6
O=C(NCc1ccco1)c1ccc2c(c1)OCCO2
  nt	0.56
Cc1nc(SCC(=O)c2ccc3c(c2)OCCO3)cc(-c2ccccc2)n1
  -1.7	-0.61
CC1CCN(c2ccc3nnc(CCC(=O)NCCC4=CCCCC4)n3n2)CC1
  nt	0.39
Cn1c(=O)c2c(n(C)c1=O)=NC(S(=O)(=O)c1cccc3nsnc13)C=2 (stereo not drawn)
  -1.2	1.1
COCCn1cc(C(=O)N2CCN(c3ccccn3)CC2)c2c3ccccc3n(C)c2c1=O
  0.66	nt
Cn1c2ccccc2c2c(C(=O)N3CCN(c4ccc(F)cc4)CC3)cn(C3CCCCC3)c(=O)c21
  -2.3	0.56
CCCCCOc1ccc(OC(=O)c2ccncc2)cc1
  -1.7	-0.11
O=C(NCc1ccccc1)C1CC(c2ccc(Cl)cc2)=NO1 (stereo not drawn)
  -1.6	nt
CCCc1nc2sc3c(=O)[nH]cnc3c2c2c1OCC(C)(C)C2
  1.4	0.81
CCN(CCNC(=O)Cn1ncn2cccc2c1=O)c1ccccc1
  -1	1.9
O=C(Cn1nc(-c2ccc3c(c2)OCCO3)ccc1=O)Nc1ccc2c(c1)OCCO2
  -0.72	1.2
CCc1nn(CC(=O)O)c(=O)c2cc3cc(F)ccc3n12
  0.21	0.23
N#CC(C#N)=Cc1ccc(-c2cc(C(F)(F)F)cc(C(F)(F)F)c2)s1
  1.4	nt
CCOc1ccc(-c2noc(C3CCCN(S(=O)(=O)c4ccc(Br)cc4)C3)n2)cc1 (stereo not drawn)
  nt	2
CCOc1cccc2c1OC1(C)CC2NC(=S)N1 (stereo not drawn)
  -1.4	nt
CCS(=O)(=O)N1CCC(C(=O)NCCN2CCOCC2)CC1
  nt	1.3
CC1CCN(C(=O)C2CCN(S(=O)(=O)c3ccc4c(c3)CC(C)N4C(=O)C3CCC3)CC2)CC1 (stereo not drawn)
  nt	1
Oc1ccc(-c2csc(Cc3c[nH]c4ccccc34)n2)cc1O
  0.52	7.4
COc1ccc(S(=O)(=O)c2cnc3ccccn3c2=O)cc1
  -0.57	0.86
O=C(Nc1nonc1-c1ccc(Cl)cc1)c1ccc(F)cc1
  1	1.3

# Screening results as filed in PubChem BioAssay.
